MARV entry inh: inhibitors of Marburg virus binding or cell entry; Marburg virus pseudotyped entry inhibition, cell reporter; control for the full effect not named in the record; about a third of the inactives were read at about 46 µM; Potency, µM (doses to about 37.8 µM), without a hit: top-dose activity change, negative = inhibition, actives largely listed as inhibitors; 1.8% of 300,000 active; active = well fitted inhibition curve with a large enough effect; inconclusive = small, poorly fitted or top-dose-only effect, or effect the other way; inactive = flat fitted curve, though single readings scatter; tested in HEK293 cells; about a fifth of its hits are not listed in these tables; note: % is set by controls: 0 for no effect and ±100 for the full control effect; luciferase read-out
NS1 function inh: inhibitors of influenza NS1 protein function. Potency, µM (top dose mostly 46.1 µM), without a hit: at the highest dose activity, positive = more growth. 0.4% of 270,000 active. AID 2326. S. cerevisiae slowed by influenza A NS1, growth recovery by OD600; note: actives are rising curves; nearly all actives have a fitted effect of over 50% in size
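OD600 was taken as the measure of yeast growth restored by compound in an NS1-expressing S. cerevisiae strain. Cells had been washed out of glucose medium and diluted 1:100 into galactose -URA medium, pH 6.0.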
StopGo reporter: FMDV 2A StopGo reporter, luciferase signal. human cells with a luciferase reporter of 2A StopGo recoding; control for the full effect not named in the record. Potency, µM (highest dose often 57.9 µM), without a hit: at the top dose signal change, negative = less light. 1.2% of 410,000 active; active = well fitted falling curve with a large enough effect; inconclusive = small, poorly fitted or top-dose-only effect; inactive = no such curve, though single readings can be large or run the other way; tested in HEK293T cells; note: % is set by controls: 0 for no effect and ±100 for the full control effect; nearly all actives have a fitted effect of over 45% in size; luciferase light after 4 h
RE007 growth inh: less growth of the S. pombe RE007 Vpr strain; Potency, µM (series often up to 92.2 µM), for the others: at the highest dose activity change, negative = less growth; 0.21% of 360,000 active; S. pombe RE007 Vpr strain, BacTiter-Glo ATP luminescence, 24 h; control for the full effect not named in the record; active = well fitted falling curve with a large enough effect; inconclusive = small, poorly fitted or top-dose-only effect; inactive = no such curve, though single readings can be large or run the other way;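 note: % is set by controls: 0 for no effect and ±100 for the full control effect; nearly all actives have a fitted effect of over 50% in size; the assay follows cell death caused by Vpr and the record does not say whether a fall means rescue or toxicity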
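Fission yeast RE007 carrying one integrated HIV-1 vpr copy, seeded at OD 0.01 in PMG+AL medium with 23 nL pinned compound. Grown 24 h at 30 degrees; viability read by BacTiter-Glo luminescence after 5 min.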
Cruzain inh Det: blocks cruzain activity in presence of Triton detergent. P25779. purified cruzain, Z-FR-AMC fluorescence, 0.01% Triton. Potency, µM, inactives show max response, negative = inhibition, most hits filed as inhibitors. 0.43% of 200,000 active. AID 1478; active = well fitted curve in the direction sought with a large enough effect; inconclusive = small, poorly fitted or top-dose-only effect, or another doubt; inactive = no such curve, though single readings can be large; an effect the other way counts as inactive or inconclusive;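 note: plate controls were neutral wells for no effect and buffer without enzyme for full effect; nearly all actives have a fitted effect of over 40% in size; top concentration of the series not given in the record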
Target sequence (P25779 123-467 limits assumed): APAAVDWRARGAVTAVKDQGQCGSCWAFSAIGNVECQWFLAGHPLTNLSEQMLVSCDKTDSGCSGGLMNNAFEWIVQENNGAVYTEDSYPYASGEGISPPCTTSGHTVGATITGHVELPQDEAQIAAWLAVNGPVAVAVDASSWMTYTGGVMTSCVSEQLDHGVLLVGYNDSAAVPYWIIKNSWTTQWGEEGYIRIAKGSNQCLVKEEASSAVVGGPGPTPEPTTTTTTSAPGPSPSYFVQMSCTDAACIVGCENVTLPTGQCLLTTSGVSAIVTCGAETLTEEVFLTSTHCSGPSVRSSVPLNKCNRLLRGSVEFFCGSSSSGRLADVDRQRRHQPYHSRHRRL
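Detergent-containing run (0.01% Triton X-100) in acetate buffer pH 5.5 with 5 mM DTT: enzyme at 1.5 nM final, 15 min compound preincubation at room temperature, then 2 uM Z-FR-AMC substrate. Activity taken as 60 s fluorescence increase at 360/450 nm.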
Cruzain noTriton: cruzain (T. cruzi) inhibition without detergent; purified cruzain, Z-FR-AMC fluorescence, no detergent; Potency, µM, inactives show max response, negative = inhibition, usual class: inhibitors; 2.3% of 200,000 active; P25779; active = well fitted curve in the direction sought with a large enough effect; inconclusive = small, poorly fitted or top-dose-only effect, or another doubt; inactive = no such curve, though single readings can be large; an effect the other way counts as inactive or inconclusive;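 note: plate controls were enzyme without inhibitor for no effect and buffer without enzyme for full effect; nearly all actives have a fitted effect of over 40% in size; top concentration of the series not given in the record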
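Purified cruzain at 1.5 nM, pre-incubated 15 min with compound at room temperature in 100 mM sodium acetate pH 5.5, 5 mM DTT, 0.00005% Triton X-100. Reaction started with 2 uM Z-FR-AMC; AMC fluorescence increase over 60 s gives rate.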
LASV entry inh: inhibitors of Lassa virus binding or cell entry. Lassa virus pseudotype entry inhibition, cell reporter; control for the full effect not named in the record. Potency, µM (highest dose often 37.9 µM), inactives show at the top dose activity change, negative = inhibition, hits mostly inhibitors. 1.2% of 300,000 active. AID 540256; active means well fitted inhibition curve with a large enough effect; inconclusive means small, poorly fitted or top-dose-only effect, or effect the other way; inactive means flat fitted curve, though single readings scatter; tested in HEK293 cells; note: % is set by controls: 0 for no effect and ±100 for the full control effect; nearly all actives have a fitted effect of over 50% in size; luciferase read-out
SARS PLP yeast: blocks SARS-CoV papain-like protease in a yeast assay; S. cerevisiae expressing SARS-CoV PLpro, growth rescue; control for the full effect not named in the record; 0.19% of 330,000 active; Potency, µM (top dose mostly 32.9 µM), inactives show at the top dose activity, positive = growth rescue; note: 0% is about no effect; nearly all actives have a fitted effect of over 55% in size; growth read by luminescence after 48 h
* hit, by the source's call; u = inconclusive; x = not tested or not shown; [ ] = dose if it differs, or a comment. Unless noted, calls come from the whole dose curve; as a rule, active means well fitted rising curve with a large enough effect; inconclusive means small, poorly fitted or top-dose-only effect; inactive means no such curve, though single readings can be large or run the other way. Potency is the fitted concentration of half-maximal effect.

item	Molecule	MARV entry inh	NS1 function inh	StopGo reporter	RE007 growth inh	Cruzain inh Det	Cruzain noTriton	LASV entry inh	SARS PLP yeast
1	CCN(CC(=O)NCc1ccc(Cl)cc1)C(=O)c1ccc(C#N)cc1	x	-2%	1%	4%	x	x	x	0%
2	O=C(Nc1ccccc1Cl)c1ccn[nH]1	4%	-6%	45%[activator]	-16%	0.4%	-4%	u	-5%
3	CC1CCN(Cc2nnc(-c3cccc(Br)c3)o2)CC1	5%[46.1 µM]	5%	24%	-1%	x	x	-5%[46.1 µM]	-2%
4	CCCn1c(CN2CCCCC2C)nc2c1c(=O)n(C)c(=O)n2C (stereo not given)	x	-119%	-11%	1%	5.2%	-4%	x	14%
5	COc1ccc(CCN=C(N)NS(=O)(=O)c2ccc(C)cc2)cc1OC	-11%[46.1 µM]	x	-9%	-1%	x	x	-18%	-4%
6	CCC(C)[C@H](NC(=O)[C@@H]1CSC2c3ccccc3C(=O)N21)C(=O)NC1CCCC1 (stereo not given in full)	x	15%	-6%	-6%	x	x	x	19%
7	Cn1cnnc1SCC(=O)Nc1ccc(F)cc1	3%	1%	17%	-6%	x	x	17%	16%
8	CCN(CC(=O)Nc1ccc(OC)cc1)C(=O)c1ccc2c(=O)n3c(nc2c1)CCC3	-8%	x	-9%	23%	x	x	-1%	0%
9	CCC(CC)C(=O)N1CCN(Cc2ccc3c(c2)OCO3)CC1	u	-11%	-25%	6%	-8.8%	10%	1%	9%
10	Nc1nnc(N2CCCCC2)s1	3%	-5%	14%	2%	0.5%	19%	12%	-14%
11	CCOc1ccccc1NC(=O)NC1(C(=O)N2CCOCC2)CCCCC1	-10%[46.1 µM]	-2%	14%	18%	2.1%	3%	0%	8%
12	COc1ccccc1Cn1[nH]nnc1=S	-16%[46.1 µM]	5%	2%	1%	x	x	8%	1%
13	CCCCc1nc(NCCNC(=O)c2ccccc2)c(C#N)c2c1CSC(C)(C)C2	u	22%	u	17%	u	-7%	u	-20%
14	O=S(=O)(NCc1csc(-c2cccs2)n1)c1ccc(Cl)cc1	x	-47%	35%[activator]	-5%	x	x	x	-1%
15	CC(NC(=O)c1cccs1)C(S)c1ccccc1 (stereo not given)	u	3%	11%	7%	x	x	0%[46.1 µM]	0%
16	COc1ccccc1NC(=O)COC(=O)c1ccccn1	2%[46.1 µM]	13%	34%[activator]	-15%	x	x	10%	-6%
17	COc1ccc(OCCN2CCN(S(=O)(=O)c3ccccc3C(F)(F)F)CC2)cc1	u	x	u	4%	x	x	u	-1%
18	O=C(COc1cccc(F)c1)N[C@@H](Cc1ccccc1)c1nc2ccccc2[nH]1	x	-2%	-11%	3%	13µM*	-1%	x	u
19	CCc1ccc(-c2nc3cc(NC(=O)c4cc5ccccc5cc4OC)ccc3o2)cc1	x	x	-17%	x	1.0%	0%	25%[46.1 µM]	x
20	COc1cc2c(cc1OC)CN(C(=O)c1sccc1C)CC2	u	-2%	0%	8%	x	x	10%	0%
21	CCOc1ccc(C(=O)NC(=S)Nc2ccc(N3CCC(C)CC3)cc2)cc1[N+](=O)[O-]	u	u	-20%	3%	-4.7%	-28%	-25%	16%
22	COC(=O)c1cc(NC(=O)c2nn(C)c3c2COc2ccccc2-3)cc(C(=O)OC)c1	0%[46.1 µM]	x	-15%	x	-0.8%	9%	-1%[46.1 µM]	x
23	CC(=O)Nc1ccc(C(=O)NNC(=O)c2cccs2)cc1	11%[46.1 µM]	1%	9%	-17%	3.9%	3%	4%	24%
24	CC(C)c1nc2ccc(NC(=O)C34CC5CC(CC(C5)C3)C4)cc2[nH]1	u	-3%	x	-29%	9.1%	-3%	20%	-4%
25	O=C(CS(=O)(=O)c1c[nH]c2ccccc12)Nc1ccc(F)cc1	5%	3%	16%	3%	x	x	15%	-6%
26	Cc1nn(Cc2ccccc2)c(C)c1N	-6%	3%	-23%	10%	-2.2%	1%	17%	2%
27	Cc1ccc(SCC(=O)NC(C)(C)C)cc1	10%	-1%	67%[activator]	16%	0.8%	9%	26%	x
28	COc1ccc(/C=C/C(=O)N(Cc2ccccc2)c2ccccn2)cc1OC	x	-8%	14%	6%	x	x	x	0%
29	C(=N\N1CCN(C2c3ccccc3-c3ccccc32)CC1)/c1cccs1	-5%	7%	-20%	-3%	1.2%	-6%	-4%	0%
30	O=C(N/N=C/c1cccc([N+](=O)[O-])c1)C1CC(=O)N(c2ccc(Br)cc2)C1 (stereo not given)	-16%	3%	-29%	-11%	-10%	16%	-5%	21%
31	COCCOC(=O)C1=C(C)NC(=O)NC1c1c(Cl)nc2c(C)cccn2c1=O (stereo not given)	9%	-1%	x	x	-6.4%	-6%	3%	4%
32	Cc1occc1C(=O)N/N=C/c1ccc(Br)s1	u	-6%	67%[activator]	u	x	x	-1%	-3%
33	CC1(C)CC(=O)c2cc3c(N)c(C(=O)NCc4ccccc4)sc3nc2C1	7%	9%	-13%	8%	-13%	2%	4%	6%
34	COc1ccc(NC(=O)CSc2nnc(-c3cccs3)n2-c2ccccc2)cc1	u	2.8µM*	-5%	14%	2.1%	-24%	u	0%
35	COc1cc(NC(=O)Cn2cnc3sc(C)c(S(=O)(=O)N4CCN(C)CC4)c3c2=O)cc(OC)c1OC	u	x	11%	x	0.2%	-6%	0%[46.1 µM]	-3%
36	CC(C)(C)OC(=O)N1CCN(C(=O)c2[nH]cnc2C(=O)N[C@@H](Cc2ccccc2)C(=O)OCc2ccccc2)CC1	x	-35%	-17%	2%	x	x	x	15%
37	CN(C)/C=C1\N=C(c2cccs2)OC1=O	2%	-17%	25%	-13%	-13%	-8%	21%	0%
38	COc1ccc2c(c1)[nH]c1c(=O)n(N)cnc12	5%	-9%	34%[activator]	-11%	-4.9%	-10%	8%	15%
39	Cc1cc2ncn(C(=O)c3ccc(F)cc3)c2cc1C	-7%	4%	-17%	1%	x	x	3%	-6%
40	COc1ccc(CN(C(=O)c2cccs2)c2ccccc2)cc1	4%[46.1 µM]	-10%	-18%	52%	x	x	-17%	-1%
41	CCN1CCN(c2ccc(S(=O)(=O)N3CCCCC3)cc2NC(=O)Cc2ccccc2F)CC1	u	x	-19%	-10%	x	x	18%	0%
42	O=C(C1=C[C@@H](c2coc3ccccc3c2=O)C[C@@H](OCCCCO)O1)N1CCOCC1	x	-1%	-4%	16%	x	x	x	-2%
43	CCOC(=O)c1ccc(S(=O)(=O)Nc2ccc(N3CCOCC3)cc2)cc1	-4%[46.1 µM]	7%	-2%	7%	x	x	x	1%
44	COc1ccc(Cc2nc3ccc(C(=O)N4C[C@@H](C)O[C@@H](C)C4)cc3o2)cc1OC	x	1%	-4%	-10%	x	x	x	-7%
45	Cc1ccnc(NC(=O)c2ccc(Br)s2)c1	x	-6%	33%[activator]	u	x	x	x	-6%
46	O=C1CC(c2ccc(F)cc2)CC(O)=C1C=NCCN1CCN(C(=O)Nc2ccccc2)CC1 (stereo not given)	-4%	-100%	-4%	3%	-1.8%	-2%	16%	0%
47	Cn1cc(Br)c(C(=O)N/N=C/c2cc3ccccc3nc2Cl)n1	x	12%	6%	1%	x	x	x	5%
48	Cc1nn(Cc2c(Cl)cccc2Cl)c(C)c1C(=O)NCc1ccc(C)n1C	u	17%	-11%	6%	-6.7%	u	7%	-3%
49	O=C(N/N=C/c1ccccn1)c1cc(-c2ccccc2)nc2ccccc12	x	u	-41%	12%	x	x	x	-4%
50	CC(C)C(=O)n1nc(-c2cccnc2)nc1NCc1ccc(F)cc1	0%	x	-2%	7%	x	x	11%	-6%
51	COc1cc(C(C)=O)ccc1Oc1cc(NN2CCCCC2)c([N+](=O)[O-])cc1[N+](=O)[O-]	x	-6%	-24%	-4%	x	x	x	-1%
52	COc1cccc(-c2nnc3sc(-c4cccs4)nn23)c1	1%	-8%	20%	-4%	1.3%	1%	23%	11%
53	O=C(Nc1sc2c(c1C(=O)O)CCC2)c1ccco1	-16%	-133%	26%	-21%	-6.4%	-3%	8%	-13%
54	CC(C)(C)c1ccc(OC(=O)CN2C(=O)C3C4CCC(C4)C3C2=O)cc1 (stereo not given)	-2%	2%	3%	x	-1.9%	u	2%	-1%
55	CCCOC(=O)CCCCCCCCC(O)CN1CCCCC1 (stereo not given)	-10%[46.1 µM]	x	-10%	-20%	x	x	30%	3%
56	Cc1[nH]c2ccccc2c1CCC(N)=O	-6%	u	-22%	-1%	2.6%	0%	10%	0%
57	COCCNC(=O)c1c(C)cc(C)cc1C	-2%[46.1 µM]	5%	-6%	4%	x	x	1%[46.1 µM]	-1%
58	CCCCOc1ccc(CSc2nncn2N)cc1	u	2%	36%[activator]	1%	1.7%	21%	3%	-5%
59	Cc1ccc(N(C)C(=O)c2cnn(-c3ccccc3)c2C)c(C)c1	-18%[46.1 µM]	-5%	-14%	-30%	x	x	-4%[46.1 µM]	-2%
60	CCOc1nnc(C)c2c(C)n(-c3ccc(Cl)cc3)nc12	3%	12%	-3%	6%	5.0%	1%	0%	u
61	S=c1[nH]nc(-c2ccncc2)n1CC1CCCO1 (stereo not given)	11%	2%	-6%	19%	2.3%	-2%	10%	3%
62	CCNC(=O)N1CCNC(=O)C1CC(=O)Nc1ccc(C(=O)OCC)cc1 (stereo not given)	11%	0%	15%	5%	3.3%	9%	8%	x
